DUX4 inh = inhibitors of DUX4-driven ZSCAN4 reporter expression, primary screen, 293T cells, Gaussia and Italica luciferase; 293T-iDUX4 ZSCAN4-Gaussia luciferase reporter, 24 h; hits give low values; activity change, negative = inhibition, % (concentration not given with the values); hit rate 0.8% among 37,000; AID 1224904, 2016;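 active = -10% or lower and over 25 points stronger than a control reporter; inconclusive = -10% or lower with a smaller gap; inactive = above -10%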;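 also: 0% = median of neutral control wells and -100% = median of positive control wells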
DUX4 inh difference = recorded beside DUX4 inh, whose call it bears; Gaussia minus Italica difference, %; measured here: selective DUX4 reporter inhibition;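 worked out from the two reporters; negative = selective loss of the DUX4 reporter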
DUX4 inh control = further read-out of DUX4 inh, marked with its call; activity change, negative = inhibition, %; measured here: Italica tet-on control reporter;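 0 = neutral control and -100 = positive control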
* hit, by the source's call; ? = inconclusive; nt = not tested or not shown.

mol	DUX4 inh	DUX4 inh difference	DUX4 inh control
C[C@@H]1CCCCO[C@H](CN(C)C(=O)Nc2ccc3c(c2)OCO3)[C@@H](C)CN([C@H](C)CO)C(=O)c2cc(NS(=O)(=O)c3ccc(F)cc3)ccc2O1	1	3	-2.0
C/C=C/c1ccccc1[C@H]1[C@@H](CO)N(C(=O)Nc2ccccc2F)[C@H]1C#N	-8	6	-13
C[C@@H]1CN([C@@H](C)CO)C(=O)c2cc(NS(=O)(=O)c3ccc(Cl)cc3)ccc2O[C@@H]1CN(C)CC1CCCCC1	-2	-4	2.0
O=C(Cc1cccnc1)N[C@@H]1CC[C@@H](CCNS(=O)(=O)c2ccccc2Cl)O[C@H]1CO	7	-1	7.9
O=C(O)[C@@H]1[C@@H](CO)[C@@H]2Cn3c(ccc(-c4cncnc4)c3=O)[C@@H]2N1C(=O)C1CCCC1	4	1	3.4
O=C(C1CCOCC1)N1CC[C@H]2[C@H](CO)Nc3ccc(-c4ccc(F)cc4)cc3[C@H]21	3	2	1.0
COc1ccccc1NC(=O)N1C[C@H](O)COC[C@@H]2O[C@H](CC(=O)N3CCC(Cc4ccccc4)CC3)CC[C@H]21	-1	0	-1.2
COc1ccc(S(=O)(=O)Nc2ccc3c(c2)OC[C@H](C)NC[C@H](C)[C@@H](OC)CN(C)C3=O)cc1	3	-3	5.7
CC=Cc1ccc2n(c1=O)C[C@@H]1[C@@H](CO)[C@H](C(=O)NCc3ccncc3)N(Cc3ccncc3)[C@H]21 (mixture of isomers)	2	-3	5.3
COc1ccc(S(=O)(=O)Nc2ccc3c(c2)C(=O)N([C@H](C)CO)C[C@H](C)[C@H](CN(C)C(=O)c2ccncc2)OCCCC[C@H](C)O3)cc1	0	-5	4.8
CC(C)CN(C[C@H]1N[C@H](CO)[C@@H]1c1ccccc1)C(=O)C1CCCCC1	-2	3	-4.5
COCCNC(=O)C[C@H]1CC[C@H]2[C@@H](COc3ccc(NS(=O)(=O)c4ccc(Cl)cc4)cc3C(=O)N2C)O1	-1	-1	0.6
O=C(O)C[C@H]1C[C@H]2c3cc(NC(=O)NC4CCCC4)ccc3O[C@H]2[C@@H](CO)O1	0	-2	1.2
CN1C[C@H]2[C@@H](c3ccccc31)[C@H](CO)N2C(=O)Nc1ccccc1	-2	-2	-0.1
O=C(c1ccncc1)N1CC(=O)N2[C@H](CO)[C@H](c3ccc(C#CCC4CCCC4)cc3)[C@@H]2C1	-10	-1	-8.5
O=C(C[C@H]1CC[C@H]2[C@@H](COC[C@@H](O)CN2C(=O)c2ccccc2F)O1)N1CCCCC1	3	0	3.2
COc1ccccc1-c1cn(CC[C@@H]2CC[C@@H](NC(=O)C3CCCCC3)[C@@H](CO)O2)nn1	-1	-1	0.4
C[C@H](CO)N1C[C@H](C)[C@@H](CN(C)Cc2ccc(C(F)(F)F)cc2)Oc2ccc(NC(=O)Cc3cn(C)c4ccccc34)cc2CC1=O	-2	-7	5.1
COc1ccccc1C#Cc1ccc([C@@H]2[C@H](C#N)N(C(=O)C3CC3)[C@H]2CO)cc1	2	3	-0.9
COc1ccc2c3c([nH]c2c1)[C@@H](CO)N(C(=O)c1ccc(F)cc1)CC31CCN(C(=O)Nc2ccc(F)cc2)CC1	?	nt	nt

Next part (5 carried over from the part before).
mol	DUX4 inh	DUX4 inh difference	DUX4 inh control
O=C(C[C@H]1CC[C@H]2[C@@H](COC[C@@H](O)CN2C(=O)c2ccccc2F)O1)N1CCCCC1	3	0	3.2
COc1ccccc1-c1cn(CC[C@@H]2CC[C@@H](NC(=O)C3CCCCC3)[C@@H](CO)O2)nn1	-1	-1	0.4
C[C@H](CO)N1C[C@H](C)[C@@H](CN(C)Cc2ccc(C(F)(F)F)cc2)Oc2ccc(NC(=O)Cc3cn(C)c4ccccc34)cc2CC1=O	-2	-7	5.1
COc1ccccc1C#Cc1ccc([C@@H]2[C@H](C#N)N(C(=O)C3CC3)[C@H]2CO)cc1	2	3	-0.9
COc1ccc2c3c([nH]c2c1)[C@@H](CO)N(C(=O)c1ccc(F)cc1)CC31CCN(C(=O)Nc2ccc(F)cc2)CC1	?	nt	nt
COc1ccc(NC(=O)N[C@H]2CC[C@@H](CCNS(=O)(=O)c3cccc(Cl)c3)O[C@@H]2CO)cc1	8	8	-0.6
C/C=C/c1ccc([C@@H]2[C@@H](CO)N(C(=O)CC)[C@H]2CNC(=O)C2CC2)cc1	2	1	0.4
c1cc(-c2ccc(C3[C@H]4CNC[C@@H]3N4CC3CCOCC3)cc2)ccn1 (stereo partly drawn)	12	5	7.1
CCCNC(=O)N1C[C@@H]2[C@H](c3ccccc31)[C@H](CO)N2C(=O)Nc1ccccc1	-1	-6	4.8
COc1ccccc1CN(C)C[C@H]1OCc2ccccc2-c2c(n(C)c3ccccc23)C(=O)N([C@H](C)CO)C[C@@H]1C	?	nt	nt
C[C@H]1CN([C@@H](C)CO)C(=O)c2ccccc2-c2ccccc2CO[C@H]1CN(C)Cc1ccc2c(c1)OCCN2C	0	-4	3.8
C/C=C/c1ccc([C@@H]2[C@@H](C#N)N(c3ncc(CC)s3)[C@H]2CO)cc1	3	0	2.7
Cc1noc(C)c1NC(=O)N(C)C[C@@H]1OCCCC[C@@H](C)Oc2ccc(NC(=O)Nc3ccc(C(F)(F)F)cc3)cc2C(=O)N([C@@H](C)CO)C[C@H]1C	-2	-1	-1.4
C[C@@H]1CN([C@H](C)CO)C(=O)c2ccccc2-c2ccccc2CO[C@H]1CN(C)S(=O)(=O)c1cccc(C#N)c1	6	-7	13
O=C(C[C@H]1C[C@H]2c3cc(NC(=O)c4cccnc4)ccc3O[C@H]2[C@@H](CO)O1)NCC1CC1	10	3	6.7
C[C@H]1CC(=O)NCC/C=C\C[C@H](c2ccc3c(c2)OCO3)NC1=O	3	-1	4.4
O=C(C[C@H]1CC[C@@H]2[C@H](COC[C@@H](O)CN2S(=O)(=O)c2cccc(F)c2)O1)NCCCN1CCOCC1	3	3	-0.2
CCC(=O)N1CC2(C1)[C@H](c1ccc(-c3cccc(OC)c3)cc1)[C@@H](CO)N2C(C)=O	8	5	3.0
N#C[C@@H]1[C@H](c2ccccc2)[C@@H](CO)N1S(=O)(=O)Cc1ccccc1	-1	-2	1.2
O=C(CC1CC1)N1[C@H](CO)[C@@H]2c3ccccc3N(S(=O)(=O)c3ccc(F)cc3)C[C@@H]21	-2	-4	2.3
O=C(C[C@H]1CC[C@H]2[C@@H](COC[C@@H](O)CN2S(=O)(=O)c2ccc(Oc3ccccc3)cc2)O1)NCCN1CCCCC1	-4	6	-9.4
COCCNC(=O)C[C@@H]1C[C@@H]2c3cc(NC(=O)Nc4ccccc4F)ccc3O[C@@H]2[C@H](CO)O1	12	5	7.4
CN1c2ccc(C3=CCCCC3)cc2[C@@H]2[C@@H](CCN2S(=O)(=O)c2ccc(F)cc2)[C@H]1CO	-4	-3	-1.6
CCCNC(=O)[C@@H]1[C@@H](CO)[C@@H]2Cn3c(ccc(C4=CCCC4)c3=O)[C@@H]2N1C(=O)c1cnccn1	-5	1	-5.6
O=C(C[C@H]1CC[C@H]2[C@@H](COC[C@H](O)CN2C(=O)Nc2ccc(Cl)c(Cl)c2)O1)NCc1ccc(Cl)c(Cl)c1	?	nt	nt

Full records, looked up by structure.
`N#C[C@@H]1[C@H](c2ccccc2)[C@@H](CO)N1S(=O)(=O)Cc1ccccc1` is listed as DUX4 inh: -1; DUX4 inh difference: -2; DUX4 inh control: 1.2
`O=C(C[C@H]1CC[C@H]2[C@@H](COC[C@H](O)CN2C(=O)Nc2ccc(Cl)c(Cl)c2)O1)NCc1ccc(Cl)c(Cl)c1` is listed as DUX4 inh: ?; DUX4 inh difference: nt; DUX4 inh control: nt

Going on with the list.
mol	DUX4 inh	DUX4 inh difference	DUX4 inh control
COc1ccccc1NC(=O)N[C@@H]1C=C[C@@H](CC(=O)N[C@H](C)c2ccccc2)O[C@H]1CO	5	1	3.5
O=S(=O)(c1ccccc1)N1CCCCN2[C@H](CO)[C@H](c3ccc(-c4ccccc4F)cc3)[C@@H]2C1	?	nt	nt
C[C@@H]1CN([C@@H](C)CO)C(=O)CCCn2cc(nn2)CO[C@H]1CN(C)Cc1cccc(C(F)(F)F)c1	3	-1	3.2
N#C[C@@H]1[C@H](c2ccc(-c3ccccc3)cc2)[C@H](CO)N1C(=O)Cc1ccccc1	2	-2	3.3
C[C@@H]1CN([C@H](C)CO)C(=O)c2cccc(NS(C)(=O)=O)c2O[C@H]1CN(C)Cc1ccc(-c2ccccc2)cc1	-2	-1	-1.0
C[C@@H]1CCCCO[C@@H](CN(C)Cc2ccc(C(F)(F)F)cc2)[C@H](C)CN([C@H](C)CO)C(=O)c2cc(NC(=O)c3ccccc3)ccc2O1	?	nt	nt
COc1ccc(C#Cc2ccc3c(c2)[C@@H]2[C@@H](CCN2C(=O)c2cccc(F)c2)[C@@H](CO)N3)cc1	21	4	17
OC[C@H]1[C@H](c2ccc(-c3cccc(F)c3)cc2)[C@H]2CN(CCC(F)(F)F)CCCCN21	?	nt	nt
COc1cccc(C(=O)N2C[C@H]3[C@@H](c4ccccc42)[C@H](CO)N3C(=O)c2cccc(F)c2)c1	-1	-1	-0.9
CN1CCN(C(=O)C[C@H]2CC[C@@H]3[C@H](COC[C@@H](O)CN3CC3CCCCC3)O2)CC1	2	6	-3.9
COCC(=O)Nc1ccc2c(c1)C(=O)N(C)[C@H]1CC[C@H](CC(=O)NCC3CC3)O[C@H]1CO2	0	2	-1.9
COc1cccc(C#Cc2ccc([C@@H]3[C@@H](CO)N4C(=O)CN(S(=O)(=O)c5ccccc5C)C[C@@H]34)cc2)c1	0	-9	8.8
O=C(CC(F)(F)F)N1C[C@H]2[C@@H](c3ccccc31)[C@H](CO)N2CC1CCCCC1	-5	-4	-0.3
CCC(=O)N1[C@@H](CO)[C@@H](c2ccccc2)C12CN(C(=O)Nc1cccc(OC)c1)C2	6	2	3.5
COc1ccc(OC(=O)N(C)C[C@H]2OCc3cn(nn3)CCCC(=O)N([C@H](C)CO)C[C@@H]2C)cc1	2	2	-0.6
COc1ccccc1C(=O)N1C[C@@H]2[C@H](c3ccccc31)[C@H](CO)N2C(=O)Cc1ccccc1	-2	0	-1.9
COc1ccccc1NC(=O)N1C[C@H]2[C@@H](c3ccccc31)[C@@H](CO)N2C(C)=O	-4	-2	-1.5
C[C@@H]1CN([C@H](C)CO)C(=O)c2cc(C#C[C@@H](C)O)cnc2O[C@@H]1CN(C)C(=O)CN1CCOCC1	1	-2	3.4
CC(C)CC#Cc1ccc([C@@H]2[C@H](CO)N3C(=O)CN(C(=O)c4ccccn4)C[C@@H]23)cc1	4	7	-2.7
Cc1ccccc1-c1ccc2c(c1)O[C@@H](CN(C)Cc1ccncc1)[C@H](C)CN([C@@H](C)CO)S2(=O)=O	0	1	-1.2

mol	DUX4 inh	DUX4 inh difference	DUX4 inh control
CN(C)CC(=O)Nc1ccc2c(c1)[C@H]1C[C@@H](CC(=O)N3CCCCC3)O[C@H](CO)[C@H]1O2	-2	-6	4.4
O=C(NC[C@@H]1[C@@H](c2ccccc2)[C@@H](CO)N1Cc1ccccn1)C1CC1	-5	-4	-1.3
CCN(C[C@@H]1N[C@@H](CO)[C@H]1c1ccc(-c2ccccc2)cc1)C(=O)COC	0	-2	1.6
CO[C@@H]1CN(C)C(=O)c2ccc(NC(=O)C3CC3)cc2OC[C@@H](C)N(C(=O)c2ccccc2F)C[C@@H]1C	-5	-8	2.3
C[C@@H]1CN([C@@H](C)CO)C(=O)CCCn2cc(nn2)CO[C@@H]1CN(C)Cc1ccc(C(F)(F)F)cc1	3	-3	6.1
CCCNC(=O)N1C[C@@H](C)[C@@H](OC)CN(C)C(=O)c2cc(NS(=O)(=O)CC(F)(F)F)ccc2OC[C@@H]1C	-3	-7	3.6
CNC[C@H]1Oc2cc(C#CCC3CCCC3)ccc2S(=O)(=O)N([C@H](C)CO)C[C@@H]1C	-3	-1	-1.8
COCC(=O)N1CCC2(CC1)CN(C(=O)COC)[C@H](CO)c1c2c2ccc(OC)cc2n1C	16	12	3.5
C[C@@H]1CCCCO[C@@H](CN(C)C(=O)c2ccncc2)[C@H](C)CN([C@@H](C)CO)C(=O)c2cc(NC(=O)NC3CCCCC3)ccc2O1	3	-1	4.4
N#C[C@H]1[C@@H](c2ccc(C#CC3CCCCC3)cc2)[C@@H](CO)N1C(=O)c1cccc(F)c1	0	-3	3.0
C[C@@H]1CN([C@@H](C)CO)C(=O)CCCn2nncc2CO[C@H]1CN(C)C(=O)Nc1ccc(N2CCCCC2)cc1	-1	0	-0.7
Cc1ccc(-c2ccc([C@H]3[C@@H](CO)N4C(=O)CN(C(=O)c5ccc(F)cc5)C[C@H]34)cc2)cc1	?	nt	nt
CN1CCN(C(=O)C[C@@H]2CC[C@@H]3[C@H](COC[C@@H](O)CN3Cc3cccc(F)c3)O2)CC1	4	6	-1.2
CS(=O)(=O)N1CC(=O)N2[C@H](CO)[C@@H](c3ccc(C#CC4CCCC4)cc3)[C@H]2C1	11	3	7.5
C[C@H](CO)N1C[C@H](C)[C@H](CN(C)CC2CCCCC2)Oc2ccc(NC(=O)CCN3CCOCC3)cc2C1=O	-3	2	-4.7
CN(C)CCCNC(=O)C[C@@H]1CC[C@H](NS(=O)(=O)c2ccccc2)[C@H](CO)O1	1	0	0.8
CN(C)C(=O)c1cccc(-c2ccc3c(c2)[C@H]2[C@H](CCN2C(=O)C2CCOCC2)[C@@H](CO)N3)c1	3	-2	4.2
O=C1C[C@H](c2ccccc2)C(=O)N[C@H](c2ccccc2)C/C=C\C[C@@H](c2ccccc2)N1	-6	26	-32

Screens (PubChem BioAssay)

Not all compounds are listed; rates above refer to the full screens.
